# Assay outcomes: PubChem BioAssay, several laboratories
# LANA-H2B inh – blocks KSHV LANA binding to histone H2A/H2B; 320,000 compounds, 0.6% hits; cell-free LANA-H2A/H2B peptide, fluorescence polarization; Q9QR71; inhibition, % (no concentration beside the values); in the data active means inhibition mostly above about 10%, no sharp cut-off; inactive means mostly below about 6.7%;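 further: stock transfer was 7.5 nL into about 10 µL; 0% = median of vehicle wells and 100% = median of positive control wells; one replicate is shown; the record names a cut of 25% in any replicate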
# Target sequence (Q9QR71 whole entry, looked up): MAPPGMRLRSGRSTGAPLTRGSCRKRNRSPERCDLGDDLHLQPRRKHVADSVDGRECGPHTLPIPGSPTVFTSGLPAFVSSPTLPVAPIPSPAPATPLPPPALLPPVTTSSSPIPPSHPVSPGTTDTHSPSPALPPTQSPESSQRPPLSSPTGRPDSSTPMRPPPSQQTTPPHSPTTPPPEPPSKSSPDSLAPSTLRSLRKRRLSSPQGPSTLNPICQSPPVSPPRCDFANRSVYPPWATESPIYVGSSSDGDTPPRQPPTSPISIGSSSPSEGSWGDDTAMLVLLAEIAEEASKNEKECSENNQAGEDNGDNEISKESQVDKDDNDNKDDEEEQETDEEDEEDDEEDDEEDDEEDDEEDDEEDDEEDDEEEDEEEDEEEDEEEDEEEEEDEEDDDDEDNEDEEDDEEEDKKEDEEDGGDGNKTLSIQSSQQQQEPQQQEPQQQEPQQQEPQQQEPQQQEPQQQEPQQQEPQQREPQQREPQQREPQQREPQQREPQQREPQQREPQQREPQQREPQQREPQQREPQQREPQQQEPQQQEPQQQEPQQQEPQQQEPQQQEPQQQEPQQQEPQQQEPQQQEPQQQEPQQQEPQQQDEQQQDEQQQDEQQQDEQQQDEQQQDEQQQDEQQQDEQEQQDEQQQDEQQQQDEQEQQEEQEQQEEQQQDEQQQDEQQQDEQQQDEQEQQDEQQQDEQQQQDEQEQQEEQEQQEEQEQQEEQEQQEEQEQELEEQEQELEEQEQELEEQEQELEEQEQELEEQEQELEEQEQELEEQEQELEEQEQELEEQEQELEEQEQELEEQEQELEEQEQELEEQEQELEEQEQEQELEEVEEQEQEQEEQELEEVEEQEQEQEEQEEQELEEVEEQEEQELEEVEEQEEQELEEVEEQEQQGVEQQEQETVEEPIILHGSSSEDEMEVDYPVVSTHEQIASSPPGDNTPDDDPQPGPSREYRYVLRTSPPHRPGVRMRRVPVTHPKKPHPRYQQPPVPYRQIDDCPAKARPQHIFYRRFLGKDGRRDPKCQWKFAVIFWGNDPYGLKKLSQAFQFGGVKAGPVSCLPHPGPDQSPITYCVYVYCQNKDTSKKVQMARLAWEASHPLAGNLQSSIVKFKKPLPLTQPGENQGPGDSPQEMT
# ALR H2O2 inh – inhibitors of human sulfhydryl oxidase ALR; P55789; purified ALR, DTT oxidation, H2O2 HRP-luminol luminescence; inhibition, % (no concentration beside the values); 290,000 compounds, 3.8% hits; AID 485317;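 active means mean and each replicate at 75% or more; inconclusive means only one of the two met; inactive means neither met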;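 further: stock transfer was 7.5 nL into about 7.5 µL; 0% = neutral wells and 100% = wells with inactivated enzyme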
# Beta2AR agonist – agonists of human beta-2 adrenergic receptor inducing internalization | 340,000 compounds, 0.43% hits | Am2.2-beta2AR cells, FAP receptor internalization, flow cytometry; reference of the scale not given here | response, % (test concentration not listed) | P07550;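 active means response above a set limit, near 3 SD of response in nonfluorescent compounds, cut at about 42% in these data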;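 further: stock transfer was 100 nL into about 11 µL; a reference agonist was the positive control; negative values mostly stem from fluorescent compounds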
# Beta apoptosis – beta cell apoptosis inhibition; INS-1E cytokine-induced death, ATP luminescence, 48 h; percent of positive-control rescue, neutral wells zero; protection from apoptosis, % (no concentration beside the values); 300,000 compounds, 0.8% hits; AID 435005;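 active means all replicates at 75% or more, or half of them and the mean; inconclusive means half reach 75% but not the mean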;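 further: 0% = cytokine-treated negative control wells and 100% = positive control rescue; higher means more ATP so stronger rescue from cytokine killing; wells of about 40 µL received 100 nL stock; the first replicate is given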
# Bfl-1 A1 inh – inhibitors of the anti-apoptotic protein A1, read as caspase activation; caspase activation, % (no concentration beside the values); MEF A1-2A-BIM cells, Caspase-Glo 3/7 luminescence, 3 h; percent of clofoctol response, vehicle zero; 330,000 compounds, 0.066% hits;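 active means over half of replicate activation scores above 10%, or exactly half above 10 with the replicate mean above 10; inconclusive means replicate mean below 10 yet half the replicates above 10; inactive means over half of replicates below 10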;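 further: wells of about 30 µL received 50 nL stock; many hits fall short of the cut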
# Ecoli rRNA inh – selective bacterial rRNA inhibition in E. coli | E. coli WT GFP vs humanized-ribosome RFP mutants, fluorescence, 24 h; active compounds read low; DMSO median 0, no signal -100 | GFP signal change (wild-type ribosome), % (concentration not given with the values) | 350,000 compounds, 1.6% hits | AID 720706;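 active means significant combined selectivity score with lowered wild-type GFP, culture density cut under 30%, mutant RFP and density less affected; inactive means any of these conditions unmet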; further: one replicate is shown; some compounds called inactive have numbers as strong as hits
# Calb FLC – affects C. albicans growth with fluconazole; C. albicans CaCi-2 (fluconazole-resistant clinical isolate) + fluconazole, Alamar Blue growth, 48 h; growth inhibition, % (test concentration not listed); 300,000 compounds, 0.57% hits;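 active means most replicates above 75%; inconclusive means exactly half above 75%; inactive means most below 75%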;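 further: all wells also contain fluconazole at 8 µg/ml as a sub-toxic cotreatment; 0% = median of DMSO wells and 100% = median of geldanamycin control wells; wells of about 8 µL received 7.5 nL stock; the first replicate is given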
# T cruzi inh – T. cruzi replication inhibition; inhibition, % (test concentration not listed); T. cruzi beta-gal in NIH3T3, luminescence, 90 h; 300,000 compounds, 1.4% hits;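 active means mean inhibition across valid replicates above about 55%, limit read from the data; inconclusive means mean below that limit but half or more replicates reach it; inactive means mean below it, under half of replicates reach it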;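 further: signal also drops with host cell toxicity which is not excluded here; 0% = plate median of DMSO wells and 100% = zero luminescence signal; higher percent means less beta-gal luminescence so fewer parasites; stock transfer was 50 nL into about 50 µL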
# Ecoli rRNA inh OD600 – recorded beside Ecoli rRNA inh, whose call it bears; OD600 change, %; measured here: OD600 growth;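 optical density of the mix in the first replicate; 0 = DMSO median and -100 = no signal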
# Ecoli rRNA inh RFP – also measured in Ecoli rRNA inh; calls as there; RFP signal change, %; measured here: RFP humanized mutant strains;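 first replicate; 0 = DMSO median and -100 = no signal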
# * hit, by the source's call; ? = inconclusive; / = no result given; & = joins results of further samples; ! = repeats disagree. An excerpt, so the mix of outcomes need not match the whole.
compound	LANA-H2B inh	ALR H2O2 inh	Beta2AR agonist	Beta apoptosis	Bfl-1 A1 inh	Ecoli rRNA inh	Ecoli rRNA inh OD600	Ecoli rRNA inh RFP	Calb FLC	T cruzi inh
CO/N=C(\C)c1ncc(C(F)(F)F)cc1N1CCOCC1	1.0	-5	-7	-12	0.5	/	/	/	-14	3
CC1CCCN(C(=O)C2COc3ccccc3O2)C1 (configuration not stated)	-2.5	0	5	-11	0.5	/	/	/	-21	-11
O=C(CC1CC2CCC1C2)NC1CCCCCCC1 (configuration not stated)	-0.3	4	-4	2	1.1	-8	-16	-8.7	0	-17
O=C(O)c1cnc(-c2ccccc2)nc1Sc1ccc(Cl)cc1	-1.5	/	0	1	-0.1	/	/	/	99*	-9
Cc1ccc(NC(=O)CSc2nc(N)cc(=O)[nH]2)cc1S(=O)(=O)N1CCCCC1	3.9	/	3	-1	0.0	-2	6	8.4	/	/
CCNC(=S)N/N=C/c1cn(Cc2ccccc2F)c2ccccc12	3.7	-3	1	18	0.1	/	/	/	2	36
COc1ccc(S(=O)(=O)NCCCN2CCCC2=O)cc1OC	0.2	-5	-6	0	0.4	9	11	-2.1	13	-10
O=C(N/N=C/c1cccnc1)c1ccc(NC(=O)c2ccc(Cl)cc2)cc1	-3.5	/	8	9	0.1	5	8	0.3	-30	2
O=[N+]([O-])c1ccc(NCCNS(=O)(=O)c2ccccc2)c(C(F)(F)F)c1	-2.0	-8	7	1	-0.6	/	/	/	20	-2
NC(=O)CC1NC(=O)c2cc([N+](=O)[O-])cc(I)c2OCCC(C(N)=O)NC(=O)[C@@H]2CCCN2C1=O (some centres not stated)	-2.2	-10	/	2	0.4	8	21	13	/	/
CCc1ccc(-c2nc(-c3ccncc3)no2)cc1	2.7	0	-11	2	-6.1	/	/	/	/	/
Cc1ccc(OCc2nc(-c3ccc(-n4cccc4)cc3)no2)cc1C	0.8	9	11	-8	-0.1	4	6	1.0	-2	-13
CCOC(=O)c1ccc(N2CCN(c3ccc(F)cc3)CC2)c(NC(=O)Nc2cccc(OC)c2)c1	-4.1	-5	3	8	-1.4	7	11	-3.3	-1	0
COc1ccc(N(CCN2C(=O)c3ccccc3C2=O)C(=O)c2cccc([N+](=O)[O-])c2)cc1	1.9	/	-24	1	0.5	1	-5	0.4	16	-22
O=C(CN(C(=O)c1csnn1)c1cccc(F)c1)NCc1ccc(F)cc1	-4.4	-7	0	-1	0.2	11	10	1.0	8	-9
CC(C)Cc1nc(Cl)c(C#N)c2c1CCC2	-0.9	/	4	-7	0.0	13	-2	0.4	17	/
CCCn1c(=O)c2ccccc2n2c(SCCOc3ccc(Cl)cc3)nnc12	-1.9	-5	-16	/	-0.4	8	4	0.8	-1	27
Cc1cc(NC(=O)CCNS(=O)(=O)c2cc(Br)cnc2N)ccc1Br	-0.5	-1	-12	7	0.4	/	/	/	2	?
CC(C)c1cccc(C(C)C)c1NC(=O)CN1CCCC1	-1.5	1	0	-5	0.8	3	3	-1.0	-6	-13
CCn1cc(CNC(=O)c2ccc(C)s2)cn1	-1.0	-22	17	-2	0.0	5	8	1.4	-7	1
CCCCc1cc(=O)oc2cc(C)cc(OCC(=O)Nc3ccccn3)c12	-1.0	-1	-18	12	-4.4	7	6	0.7	-7	9
Cc1cc2cc(CNC(=O)Cc3ccc([N+](=O)[O-])cc3)ccc2[nH]1	3.7	0	10	3	-0.1	-3	-2	11	-7	-4
N#C/C(=C\c1ccc(-c2cccc([N+](=O)[O-])c2)o1)c1nnc(N2CCOCC2)n1-c1ccccc1	-0.9	-7	/	12	0.1	3	13	-1.4	7	35
N#Cc1cnn2c(-c3cccc(C(F)(F)F)c3)ccnc12	-0.9	-9	6	3	0.5	2	5	4.4	-3	6
COc1cc(CNCc2cccnc2)ccc1OCC(=O)NC(C)(C)C	-6.4	-19	-10	3	0.4	11	8	-1.3	-8	-2
CCOc1cc(C2C(C#N)=C(N)SC(N)=C2C#N)ccc1OCCN1CCOCC1	-4.9	99*	9	1	-0.5	/	/	/	-18	-20
Cc1nc(C)c(-c2csc(Nc3ccc(C(=O)O)c(O)c3)n2)s1	0.3	11	7	/	-0.1	-11	-12	-3.4	0	2
COc1ccccc1NS(=O)(=O)c1ccc(NN=C2CCCCC2)c([N+](=O)[O-])c1	2.0	0	3	7	-1.3	/	/	/	11	7
Cc1cc(NC(=O)c2ccccc2Cl)ccc1NC(=O)c1ccccc1Cl	-6.2	-6	1	/	-0.9	8	5	-0.6	-1	3
Cc1c(CCC(=O)O)c(=O)oc2cc3occ(-c4ccccc4)c3cc12	7.0	/	-8	2	0.4	-42*	-27*	-8.2*	13	-7
Cc1ccc[n+](CC(=O)Nc2ccc([N+](=O)[O-])cc2Cl)c1	1.7	-15	1	3	?	/	/	/	8	-13
CCC(C)NC(=O)c1ccc(CSCc2ccc(Cl)cc2)o1 (configuration not stated)	1.9	84*	-2	-2	1.1	-21	-41	-2.3	-3	7
Cc1cccc(S(=O)(=O)N(CC(=O)Nc2ccccc2C)Cc2ccco2)c1	1.0	-6	-3	0	1.5	/	/	/	-11	6
COc1cc(NC(=O)CCS(=O)(=O)c2ccc3c(c2)n(C)c(=O)c(=O)n3C)cc(OC)c1	0.7	-19	-1	-4	-1.8	5	13	-0.8	10	-6
CC(c1c(O)c2ccccc2[nH]c1=O)C1(C)CCC(O)C(C)(C)O1 (configuration not stated)	1.9	6	-5	6	0.7	/	/	/	-5	-13
O=C(c1ccnc(Cl)c1)N1CCCC(Nc2ccc(F)cc2)C1 (configuration not stated)	0.7	29	8	-7	0.6	-12	-3	-3.4	2	0
FC(F)(F)c1ccccc1NC(=S)N1CCN(c2ncccn2)CC1	0.0	8	-2	41	0.1	5	0	-3.5	-5	-24
O=C(CCCCl)Nc1nc(-c2ccc3c(c2)OCCO3)cs1	3.5	-15	-4	-4	-0.5	-15	-38	-4.5	-9	-7
Cc1cc(C)cc(CC(Cc2nc3ccccc3[nH]2)c2nc3ccccc3[nH]2)c1 (configuration not stated)	-0.1	/	15	46	-0.2	/	/	/	3	45
O=C(C(=O)N1CCCC1CO)N1CCCC1CO (configuration not stated)	0.0	3	-1	-5	0.6	10	-1	-0.9	-3	5
Nc1nc(N)c2sc3nc(C(F)(F)F)cc(C(F)(F)F)c3c2n1	4.5	-8	4	-2	-0.5	/	/	/	?	5
CCN1CCN(Cc2cc(=O)oc3ccc(C)cc23)CC1	3.9	-4	2	-4	0.1	0	6	-3.9	3	/
CCOCCCN(C(=O)Cn1nnc(-c2ccc(C)o2)n1)C(C(=O)NCC1CCCO1)c1ccc(F)cc1 (configuration not stated)	7.8	-5	-9	0	-0.2	4	10	-5.1	1	-6
CC(C)(C)NC(=O)CN(C(=O)c1snc(C(=O)NC2CCCCC2)c1N)c1ccc(F)cc1	-0.5	/	11	10	-0.6	1	9	-3.4	19	9
CCOC(=O)C1(CC2CCCCO2)CCN(S(=O)(=O)c2cc(C)cs2)CC1 (configuration not stated)	-8.1	5	-1	2	1.6	-38	-45	-8.8	0	5
Nc1nc(-c2ccco2)nn1C(=O)c1ccc(Cl)cc1	1.0	-103	5	3	0.4	/	/	/	-4	10
Cc1cccc(C)c1NC(=O)CSc1n[nH]c(=O)n1C1CC1	-3.5	-15	-2	-5	-0.9	10	4	-1.5	/	/
CC1CCCC(C)N1C(=O)CSc1nc2ncnc(N)c2[nH]1 (configuration not stated)	10	16	-6	5	0.6	/	/	/	3	-4
CC/C(=C/c1sc2ccc(C)cc2[n+]1CCCS(=O)(=O)[O-])SC	2.6	9	/	1	0.3	17	6	14	?	-3
CCN(CC)CCCNc1nc(CN2CCOCC2)nc2sc3c(c12)CCC3	-0.6	-2	0	-3	0.0	16	15	2.3	-2	22
Cc1cccc(C)c1OCc1cc(C(=O)N(Cc2c(C)nn(C)c2C)C2CC2)no1	-4.8	-1	-2	36	-0.1	-6	-42	-2.5	11	-2
O=C(NCCS(=O)(=O)N1CCN(c2ccccc2)CC1)c1ccccc1F	-3.6	-15	4	/	-0.5	16	8	-1.1	-8	3
C(=NC12CN3CN(CN(C3)C1)C2)c1ccc2c(c1)OCO2	1.0	-25	2	-2	-0.1	/	/	/	-6	-17
Cc1cccc(C(=O)NC(=S)NC(C)c2ccccc2)c1 (configuration not stated)	9.2	17	0	0	-0.3	-24	-31	-0.5	-2	-10
CC(C)CSc1nc2c(c(=O)[nH]c(=O)n2C)n1CCc1ccccc1	3.3	-3	-2	0	-1.5	/	/	/	1	9
COc1ccc(C(C(=O)NC2CCCC2)N(CC2CCCO2)C(=O)Cc2cccs2)cc1OC (configuration not stated)	0.6	-2	5	6	1.2	6	15	-0.8	-6	2
CCOC(=O)C1=C(COC(=O)c2cccc(Cl)c2)NC(=O)NC1C (configuration not stated)	-5.7	-2	-9	2	-0.2	-5	3	3.3	-15	5
O=C(NCc1nnc(SCC(=O)N2CCCCCC2)o1)c1ccccc1F	4.7	2	-7	-2	0.7	0	0	1.7	-1	15
CN(C)S(=O)(=O)c1ccc(C(=O)Nc2ccc(S(=O)(=O)NC3=NCCCCC3)cc2)cc1	-7.1	-5	5	-4	2.4	/	/	/	-1	-12
CCOc1ccc(OCC)c(S(=O)(=O)NCc2ccc3c(c2)OCO3)c1	2.2	3	-5	1	0.4	6	5	-1.1	-5	11

# (list continues)
compound	LANA-H2B inh	ALR H2O2 inh	Beta2AR agonist	Beta apoptosis	Bfl-1 A1 inh	Ecoli rRNA inh	Ecoli rRNA inh OD600	Ecoli rRNA inh RFP	Calb FLC	T cruzi inh
Cc1ccc(Cl)cc1N1CCN(C(=O)c2cccc3c(=O)c(C)c(-c4ccccc4)oc23)CC1	/	/	28	/	/	2	-6	2.3	-10	53
NC(=O)c1ccsc1NC(=O)c1coc2ccccc2c1=O	5.0	2	7	3	-12	5	4	-2.5	-17	-3
COc1cccc(OCC(O)CN2CCN(c3ccccc3)CC2)c1 (configuration not stated)	0.9&-2.2	96*!	-2&-13	7&-6	-0.1&0.9	6&0	10&6	2.6&0.6	-4&-9	1&-50
O=C(OCc1cc(=O)n2ccsc2n1)c1ccccc1O	-2.8	9	-4	-7	-10	-7	-11	-2.1	/	/
COc1ccc(NC(=O)CCCC(=O)c2ccccc2)cc1OC	6.0	-14	-1	5	1.3	-2	1	-10	3	-4
COC(=O)Cc1csc(NCc2ccccc2)n1	1.8	-2	-2	3	0.4	7	8	-0.2	-10	4
O=C(O)c1cccc(-n2cccc2/C=N/O)c1	-2.6	4	-2	-13	0.1	/	/	/	-16	-17
